# Compound activity (PubChem BioAssay)
# Calb biofilm kill: mixtures killing C. albicans biofilm. inhibition, % at 7.6 µM. C. albicans biofilm persisters + clotrimazole, fluorescence viability; primary screen in compound mixtures of four per well. AID 1242. 120,000 tested, 0.02% active;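 active = inhibition above 30.3% in the primary screen of four-compound pools, then above 30% when the compound was retested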;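 note: compounds exposed to preformed 24 h biofilms for 48 h; the number belongs to the whole pool; some results filed as inactive read as strong as hits; inactives centre near 12; 0% = biofilm with clotrimazole alone and 100% = kill control; retested singly at about 60 µM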
#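 Test system: C. albicans biofilms. Buffer or medium: RPMI/MOPS medium, pH 7.0. Timing: 48 h compound exposure at 37 °C. Technique: Alamar Blue fluorescence. Evaluation: percent inhibition of biofilm viability.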
# The depositor's hits bear a star. A portion of the library. The share of hits here may be higher or lower than overall.
molecule	Calb biofilm kill
CCN(CC)S(=O)(=O)c1cccc(-c2nnc(SCC(N)=O)n2C)c1	11
Oc1ccc(N=Nc2n[nH]c(-c3ccccc3)n2)cc1	8
O=C(Nc1ccccc1)N(c1ccccc1)C1C=CS(=O)(=O)C1 (stereo unspecified)	18
COc1ccc(/C=C(\NC(=O)c2ccccc2)C(=O)NNC(=O)CCN2CCOCC2)cc1	2
CC(=O)Nc1cc(Cl)ccc1OS(=O)(=O)c1ccc(C)cc1	9
COc1ccc(C(=O)NNC(=S)Nc2ccccc2)cc1	-2
Cc1cc([N+](=O)[O-])ccc1NCc1ccco1	18
O=C(CNC(=S)N(Cc1ccccc1F)C1CCCCC1)NCCN1CCOCC1	1
CCC(CC)C(=O)NCCc1cc2c(C)ccc(C)c2[nH]c1=O	19
Cc1ccc(C(=O)NC(=O)OCCn2c(C)cnc2[N+](=O)[O-])cc1	14
CC(=O)c1ccc(NC(=O)CC2Nc3cccc4cccc(c34)NC2=O)cc1 (stereo unspecified)	8
COC(=O)C1=NN(c2cccc3ccccc23)C2C(=O)N(c3ccccc3OC)C(=O)C12 (stereo unspecified)	5
COC(=O)Cn1c(=O)c2c(n(Cc3ccccc3)c1=O)N/C(=C/c1ccc(Br)cc1)C2=O	11
CCCN(CC(=O)Nc1ccc(OC)c(OC)c1)CC(=O)Nc1ccc(F)c(F)c1F	9
Cc1ccc(N=C2NC(=O)/C(=C/c3cccn3C)S2)cc1	18
CC(=O)Nc1ccc(NC(=O)COc2ncnc3ccccc23)cc1	10
Nc1c(Cl)cc(NC(=O)c2ccccc2C(=O)O)cc1Br	6
O=C(NC(Cc1c[nH]c2ccccc12)C(=O)O)/C(=C/c1ccc2c(c1)OCO2)NC(=O)c1ccccc1 (stereo unspecified)	18
CCOC(=O)COc1c(Cl)cc(C2NC(=S)NC(c3ccccc3)=C2C(C)=O)cc1OC (stereo unspecified)	-3
CN(C)/C(Cn1cncn1)=C1/N=C(c2ccccc2)OC1=O	12
CC1CCCN(Cc2csc(N)n2)C1 (stereo unspecified)	7
C/C(=N\O)C(C)(C)Nc1ccc(F)cc1	13
COc1ccc(C2C(C#N)=C(C)NC(C)=C2C(=O)OC(C)C)c(OC)c1 (stereo unspecified)	15
CCn1ncc(C(=O)Nc2ccccc2C)c1C	8
COCCN=C1Sc2nc3ccc(C)cc3cc2CN1Cc1cccs1	11
CCOP(=O)(OCC)C(Nc1ccc(C(=O)O)cc1)c1ccccc1 (stereo unspecified)	18
O=C(COc1ccc(Nc2ccccc2)cc1)OCC(=O)N1CCCCC1	-6
O=C(CCc1ccccc1)NCCc1cccs1	20
CNC(=O)CN(c1ccc(OC)cc1)S(=O)(=O)c1ccc(F)cc1	14
CC(C)c1ccc(/C=C2\Oc3c(ccc(O)c3CN3CCN(C)CC3)C2=O)cc1	11

# 16 consecutive records out of the list so far, for reference:
molecule	Calb biofilm kill
Cc1cc([N+](=O)[O-])ccc1NCc1ccco1	18
O=C(CNC(=S)N(Cc1ccccc1F)C1CCCCC1)NCCN1CCOCC1	1
CCC(CC)C(=O)NCCc1cc2c(C)ccc(C)c2[nH]c1=O	19
Cc1ccc(C(=O)NC(=O)OCCn2c(C)cnc2[N+](=O)[O-])cc1	14
CC(=O)c1ccc(NC(=O)CC2Nc3cccc4cccc(c34)NC2=O)cc1 (stereo unspecified)	8
COC(=O)C1=NN(c2cccc3ccccc23)C2C(=O)N(c3ccccc3OC)C(=O)C12 (stereo unspecified)	5
COC(=O)Cn1c(=O)c2c(n(Cc3ccccc3)c1=O)N/C(=C/c1ccc(Br)cc1)C2=O	11
CCCN(CC(=O)Nc1ccc(OC)c(OC)c1)CC(=O)Nc1ccc(F)c(F)c1F	9
Cc1ccc(N=C2NC(=O)/C(=C/c3cccn3C)S2)cc1	18
CC(=O)Nc1ccc(NC(=O)COc2ncnc3ccccc23)cc1	10
Nc1c(Cl)cc(NC(=O)c2ccccc2C(=O)O)cc1Br	6
O=C(NC(Cc1c[nH]c2ccccc12)C(=O)O)/C(=C/c1ccc2c(c1)OCO2)NC(=O)c1ccccc1 (stereo unspecified)	18
CCOC(=O)COc1c(Cl)cc(C2NC(=S)NC(c3ccccc3)=C2C(C)=O)cc1OC (stereo unspecified)	-3
CN(C)/C(Cn1cncn1)=C1/N=C(c2ccccc2)OC1=O	12
CC1CCCN(Cc2csc(N)n2)C1 (stereo unspecified)	7
C/C(=N\O)C(C)(C)Nc1ccc(F)cc1	13

# (more compounds)
molecule	Calb biofilm kill
CCc1ccccc1NCC(=O)Nc1ccc(Cl)c(C(F)(F)F)c1	9
Cc1[nH]c2ccccc2c1C(c1ccncc1)N1CCC(C)CC1 (stereo unspecified)	22
CC1CCCCC1NC(=S)Nc1ccc(Cl)cc1Cl (stereo unspecified)	13
Cc1cccc(NC(=O)C2CCN(S(=O)(=O)c3c(C)noc3/C=C/c3ccco3)CC2)n1	5
CC(=O)CSc1ncnc2sc3c(c12)CCCC3	6
CCOc1ccc2ccccc2c1CNc1nnnn1CC	16
Cc1cccc(NC2=NC(C)(C)N=C(N)N2)c1	19
Cc1cccc(NC(=O)c2cccc(NC(=O)Cc3cccs3)c2)c1	18
Cc1cc(=O)oc2cc(OCC(=O)OCC(=O)N3CCC(C)CC3)ccc12	11
CN(C[C@H](Cc1ccccc1)N(C[C@H](CC1CCCCC1)N(CCc1ccccc1)N=O)N=O)N=O	19
CSCCC(NC(=O)c1ccccc1C)C(=O)O (stereo unspecified)	3
CN(Cc1ccccc1)C(=O)COC(=O)c1ccc(S(=O)(=O)N(C)C)cc1	-2
C=C(C(=O)c1ccccc1)C(c1ccccc1)C(C)C(=O)c1ccccc1 (stereo unspecified)	22
Cc1cc(C(=O)OCC(=O)Nc2ccc(F)cc2[N+](=O)[O-])c2ccccc2n1	-6
CN(Cc1ccccc1)C(=O)COC(=O)c1ccccc1NS(=O)(=O)c1cccc(N)c1	12
CC1=Nc2cc(Cl)ccc2Oc2ccccc21	11
COc1ccc2c3c([nH]c2c1)C1(NCC3)C(=O)Nc2ccccc21 (stereo unspecified)	15
Cc1ccc(C(=O)N2CCN(Cc3ccc4c(c3)OCO4)CC2)cc1S(=O)(=O)N1CCOCC1	20
COc1cc(/C=N/O)cc(Br)c1OCC(=O)NCc1ccccc1	11
Cc1cc2c(cc1C)-c1c(ssc1=Nc1ccc(S(N)(=O)=O)cc1)C(C)(C)N2	10
Cc1[nH]c2ccccc2c1C(c1ccncc1)N1CCN(c2ccccc2F)CC1 (stereo unspecified)	15
Cc1nc(-c2ccc(Br)cc2)ccc1C(=O)O	6
CCOC(=O)C1=C(Nc2ccccc2)CC(C)(O)C(C(=O)OCC)C1c1ccc(Br)cc1 (stereo unspecified)	-4
CC1(C)Nc2ccccc2N(Cc2ccc([N+](=O)[O-])cc2)C1=O	6
COc1ccccc1/C=C/C(=O)NC(=S)NCC1CCCO1 (stereo unspecified)	10
Oc1c(N=NC(=S)Nc2ccccc2F)c2ccccc2n1Cc1ccccc1	10
O=C(CSc1ccsc1[N+](=O)[O-])Nc1cc(F)ccc1F	17
CC1=C(C(=O)OC2CCCC2)C(c2coc3ccccc3c2=O)C2=C(CC(C)(C)CC2=O)N1 (stereo unspecified)	0
CCc1nnc(NS(=O)(=O)c2ccc(NC(=S)NC(=O)c3cccs3)cc2)s1	2
CC(C)c1ccc(OCC(=O)Nc2ccc(OC(F)(F)F)cc2)cc1	17
Cc1occc1-c1nnc(SCC(=O)N2CCN(c3ccccc3F)CC2)n1C	20
Nc1ccc(C(=O)Nc2ccc(NC(=O)c3ccco3)c(O)c2)cc1	20
Cc1cc(C(=O)COc2cc(F)ccc2[N+](=O)[O-])c(C)n1C1CC1	4
Cc1cccc(-n2cc[nH]c2=S)c1	15
Cc1ccc(C)c(NC(=O)CCC(=O)NNC(=S)Nc2ccccc2)c1	13
COc1ccccc1-n1cc(CN2CCN(C3CCCC3)C(CCO)C2)cn1 (stereo unspecified)	23
COc1ccc(O)c(C(c2c(C)[nH][nH]c2=O)c2c(C)[nH][nH]c2=O)c1	23
Cc1nc(SCc2ccc(F)cc2)c([N+](=O)[O-])[nH]1	16
CCOCCCNC(=S)Nc1ccc(Br)cc1Cl	15
O=C(CCN1CCCCC1)N=Nc1c(O)[nH]c2ccccc12	26
CC(=O)N/C(=C\c1cccc([N+](=O)[O-])c1)C(=O)NC1CCCCC1	16
Clc1ccc(CSc2nnc3ccccn23)c(Cl)c1	21
CCOCCCn1c(=NC(C)=O)c(C#N)cc2c(=O)n3cccc(C)c3nc21	-2
COc1ccc(C(=O)c2ccc(Cl)c([N+](=O)[O-])c2)cc1	4
S=c1[nH]nc(C2(c3ccccc3)CCCC2)o1	8
COc1cc(NC(=O)C/C(C)=N/NC(=O)C(OC)c2ccccc2)c(OC)cc1Cl (stereo unspecified)	16
Cc1ccc(Cl)c(Nc2ccccc2C(=O)O)c1Cl	11
CC1(C)C2CCC(C2)C1(C)NC(=O)CNCc1cccs1 (stereo unspecified)	22
CCN1CCN(Cc2ccc(NC(=O)c3cc(NC(=O)c4cnnc5ccccc45)cc(OC)c3)cc2C(F)(F)F)CC1	13
COc1cc(/C=C(\C#N)c2ccccn2)ccc1OCc1ccc(Cl)cc1	14
COC(=O)c1c(C)[nH]c(C(=O)C(C)OC(=O)C2=NNC(=O)CC2)c1C (stereo unspecified)	21
CN(c1ccc(OCC(=O)OCC(=O)Nc2c(F)c(F)c(F)c(F)c2F)cc1)S(=O)(=O)c1ccc(F)cc1	14
CCOc1ccccc1C1CC(c2cccc(NS(C)(=O)=O)c2)=NN1C(=O)c1ccccc1 (stereo unspecified)	17
C=CCS/C(N)=N\N=C\c1cc(Br)cc([N+](=O)[O-])c1O	8
COc1ccccc1N1CCN(C(=O)c2ccc3nc[nH]c3c2)CC1	15
COc1ccc(CC(=O)c2ccc(O)cc2O)cc1	15
COc1ccccc1NS(=O)(=O)c1cc(NC(=O)Nc2cccc(C)c2)ccc1N1CCCCC1	7
CS(=O)(=O)n1nc(-c2cccnc2)nc1NCc1ccccc1	11
c1ccc2c(C3=NNC(=NC4CC4)SC3)c[nH]c2c1	7
COc1ccccc1C1=NOC(CN2C(=O)c3ccccc3S2(=O)=O)C1 (stereo unspecified)	18

# Given as labelled records: entries from further up
CCOCCCNC(=S)Nc1ccc(Br)cc1Cl
  Calb biofilm kill: 15

CN(c1ccc(OCC(=O)OCC(=O)Nc2c(F)c(F)c(F)c(F)c2F)cc1)S(=O)(=O)c1ccc(F)cc1
  Calb biofilm kill: 14

# Continued.
molecule	Calb biofilm kill
O=C(NC1CCCCC1)C(c1ccc(O)c(O)c1)N(C(=O)Cn1nnc2ccccc21)c1cccc(O)c1 (stereo unspecified)	0
Cc1cc(Cl)ccc1Oc1ccccc1C(=O)CC#N	17
[O-]/C(=C(\C(=S)NCCN1CCOCC1)[n+]1ccccc1)c1ccc(Cl)s1	15
CCOc1ccc(N(CC(=O)N/N=C/c2cc(Br)c(C)o2)S(C)(=O)=O)cc1	8
Cc1ccc(NC2=CC(=O)CC(c3ccc(Cl)cc3)C2)cc1 (stereo unspecified)	18
CCN1CCN(CC(=O)Nc2ccc(Cl)c(S(=O)(=O)N(C)C)c2)CC1	8
O=C1CC(C(=O)Nc2nccs2)C(c2ccccc2)O1 (stereo unspecified)	12
CNC(=S)N(Cc1cc2cc(OC)c(OC)cc2[nH]c1=O)C1CCCC1	30
CCC(C)(C)NC(=O)COc1ccc(OCc2ccccc2)cc1	6
CCN1C(=O)C(CC(=O)Nc2ccc(F)cc2)N(Cc2ccc3c(c2)OCO3)C1=S (stereo unspecified)	21
O=C(CCN1C(=O)C2C3CC(C(Br)C3Br)C2C1=O)OCC(=O)c1ccccc1 (stereo unspecified)	19
Cc1cc(C(=O)N2CCN(c3ccc(C(F)(F)F)cn3)CC2)c(C)o1	18
COc1cccc2c1OC1(C)CC2NC(=O)N1c1cccc(C(=O)N2CCN(c3ccccc3)CC2)c1 (stereo unspecified)	5
Cc1cc(OCC(=O)NC(C)c2ccccc2)ccc1[N+](=O)[O-] (stereo unspecified)	14
Cc1cc(O)c(C(C)C)cc1NC(=O)Nc1cccc2ccccc12	13
O=C(CN1CCN(S(=O)(=O)c2ccc(Cl)s2)CC1)N1CCOCC1	16
N#CC1=C(S)N(c2ccccc2)C(c2ccc(-c3cc(Cl)ccc3Cl)o2)NC1=O (stereo unspecified)	10
CC(=O)c1ccc(NC(=O)c2cnsn2)cc1	23
COc1cc(SC)ccc1C(=O)Nc1ncc(C)s1	10
O=C(/C=C/c1ccccn1)c1cc(Br)ccc1O	17
Cc1ccc(C)c(NC(=O)c2ccccc2NS(=O)(=O)c2cc([N+](=O)[O-])ccc2C)c1	18
COc1ccc(C)cc1NC(=S)Nc1ccccc1SC	4
O=C(Nc1ccccc1)/C(=C1\CCCN1)[N+](=O)[O-]	-1
Cc1cccc(C)c1NC(=O)CSc1cc(C(=O)c2nccn2C)c2ccccc2n1	5
O=C(/C=C/c1ccco1)Nc1ccc2nc3n(c(=O)c2c1)CCCC3	15
COc1ccc(C)cc1NC(=O)NC(C)c1ccncc1 (stereo unspecified)	19
COc1ccc(C2/C=C\CN(S(=O)(=O)/C=C/c3ccccc3)CC(=O)N2Cc2ccc(F)cc2)cc1 (stereo unspecified)	13
Cc1c(C(=O)Nc2nc3ccccc3[nH]2)oc2ccc(Br)cc12	7
CCOc1ccc(CCNC(=O)COC(=O)c2cc(OC)cc(OC)c2)cc1OCC	14
Cc1nc(SCc2ccc(OCCC(C)C)cc2)n[nH]1	0
CCNC(=S)Nc1ccc(OC(F)(F)F)cc1	-9
Cc1ccc(C)c(NCC(O)c2ccccc2)c1 (stereo unspecified)	13
